Source: PubChem (National Center for Advancing Translational Sciences (NCATS))
VDR inhibitor = Inhibitors of the vitamin D receptor (VDR): qHTS | hit rate 0.93% among 400,000 | VDR-SRC2-3 peptide fluorescence polarization, 2 h | Potency, µM, for inactives: max response, negative = inhibition, usual class: inhibitors; active = well fitted inhibition curve with a large enough effect; inconclusive = small, poorly fitted or top-dose-only effect, or another doubt; inactive = no such curve, though single readings can be large or run the other way; note: series mostly up to about 120 µM
Target sequence (P11473 whole entry, looked up): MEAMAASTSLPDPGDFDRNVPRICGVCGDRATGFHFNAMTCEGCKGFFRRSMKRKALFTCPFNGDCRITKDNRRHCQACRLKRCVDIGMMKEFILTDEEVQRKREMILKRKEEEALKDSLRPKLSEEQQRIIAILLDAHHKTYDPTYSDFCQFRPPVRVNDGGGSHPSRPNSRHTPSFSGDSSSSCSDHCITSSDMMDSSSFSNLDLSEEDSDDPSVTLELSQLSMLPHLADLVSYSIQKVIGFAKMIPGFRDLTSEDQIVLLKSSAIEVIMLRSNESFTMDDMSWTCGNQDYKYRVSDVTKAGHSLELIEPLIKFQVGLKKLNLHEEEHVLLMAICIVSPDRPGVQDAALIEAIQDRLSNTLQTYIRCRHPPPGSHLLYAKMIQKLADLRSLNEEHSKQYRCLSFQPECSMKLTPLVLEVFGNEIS
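Signal is fluorescence polarization, reporting how far test compounds block the interaction of VDR with the SRC2-3 coregulator peptide after a 2 h room-temperature incubation.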
* hit, by the source's call; ? = inconclusive; & = joins results of further samples; [ ] = another dose, or the depositor's remark. % is set by controls: 0 for no effect and ±100 for the full control effect; potency is the fitted concentration of half-maximal effect. The list is partial (hit frequency here may not be typical).

The opening 20 compounds, ahead of the listing:
SMILES | VDR inhibitor
CC(=O)N(CCC(c1ccccc1)c1ccco1)Cc1cccs1 (centres undefined) | ?
O=C(Nc1ccc(Oc2cccnc2)nc1)c1ccc(C(F)(F)F)cc1 | 4%
Cc1ccccc1-n1ncc2c1CC(C)(C)CC2NC(=O)CCC(F)(F)F (centres undefined) | -22%
COc1cccc(N2CCN(C(=S)Nc3ccc(F)cc3)CC2)c1 | 6%
COc1ccc(C(=O)NCCSc2c(C)[nH]c3ccccc23)cc1 | -1%
O=C(N/N=C/c1ccco1)c1ccn[nH]1 | 21%
COc1cc(/C=N/NC(N)=O)c(Br)cc1OCC(=O)Nc1ccccc1C | -15%
COc1ccc(OC)c(NC(=O)CSc2nncc(=O)n2N)c1 | -19%
O=C1Nc2ccc(Cl)cc2C12Nc1ccccc1-c1nnc(SCc3ccccc3F)nc1O2 (centres undefined) | 4%
CC(C)(C)OC(=O)NCCNC(=O)c1cccs1 | 17%
O=C(CN(CC1CCCO1)C(=O)CNS(=O)(=O)c1ccc(F)cc1)NC1CCCC1 (centres undefined) | -13%
O=c1[nH]c2cc3c(cc2cc1C(c1nnnn1C1CCCCC1)N1CCSCC1)OCCO3 (centres undefined) | 4%
CCC(C)NC(=O)C1(C)CCC(=O)N1Cc1ccccc1OC (centres undefined) | -2%
CCN(CC)S(=O)(=O)c1cccc(C(=O)Nc2sc3c(c2C(N)=O)CCCC3)c1 | -7%
O=C(Nc1ccccc1)C1=C(O)CC(c2ccc(Cl)cc2)N2CCN=C12 (centres undefined) | -26%
COc1ccc(-c2noc(CN(C)S(=O)(=O)c3c(C)cc(C)cc3C)n2)cc1OC | 3%
O=C(CCC(=O)N1CCN(S(=O)(=O)c2ccccc2Cl)CC1)c1ccccc1 | -4%
Cc1ccc(NC(=O)Nc2cc(C(F)(F)F)c[nH]c2=O)cc1 | -9%
CC1(C)Cc2c(oc3ncn4ncnc4c23)CO1 | 3%
N#Cc1ccc(NC(=S)NC(=O)C2CCCCC2)cc1 | -3%

This part in full, from the first entry:
SMILES | VDR inhibitor
CC(=O)N(CCC(c1ccccc1)c1ccco1)Cc1cccs1 (centres undefined) | ?
O=C(Nc1ccc(Oc2cccnc2)nc1)c1ccc(C(F)(F)F)cc1 | 4%
Cc1ccccc1-n1ncc2c1CC(C)(C)CC2NC(=O)CCC(F)(F)F (centres undefined) | -22%
COc1cccc(N2CCN(C(=S)Nc3ccc(F)cc3)CC2)c1 | 6%
COc1ccc(C(=O)NCCSc2c(C)[nH]c3ccccc23)cc1 | -1%
O=C(N/N=C/c1ccco1)c1ccn[nH]1 | 21%
COc1cc(/C=N/NC(N)=O)c(Br)cc1OCC(=O)Nc1ccccc1C | -15%
COc1ccc(OC)c(NC(=O)CSc2nncc(=O)n2N)c1 | -19%
O=C1Nc2ccc(Cl)cc2C12Nc1ccccc1-c1nnc(SCc3ccccc3F)nc1O2 (centres undefined) | 4%
CC(C)(C)OC(=O)NCCNC(=O)c1cccs1 | 17%
O=C(CN(CC1CCCO1)C(=O)CNS(=O)(=O)c1ccc(F)cc1)NC1CCCC1 (centres undefined) | -13%
O=c1[nH]c2cc3c(cc2cc1C(c1nnnn1C1CCCCC1)N1CCSCC1)OCCO3 (centres undefined) | 4%
CCC(C)NC(=O)C1(C)CCC(=O)N1Cc1ccccc1OC (centres undefined) | -2%
CCN(CC)S(=O)(=O)c1cccc(C(=O)Nc2sc3c(c2C(N)=O)CCCC3)c1 | -7%
O=C(Nc1ccccc1)C1=C(O)CC(c2ccc(Cl)cc2)N2CCN=C12 (centres undefined) | -26%
COc1ccc(-c2noc(CN(C)S(=O)(=O)c3c(C)cc(C)cc3C)n2)cc1OC | 3%
O=C(CCC(=O)N1CCN(S(=O)(=O)c2ccccc2Cl)CC1)c1ccccc1 | -4%
Cc1ccc(NC(=O)Nc2cc(C(F)(F)F)c[nH]c2=O)cc1 | -9%
CC1(C)Cc2c(oc3ncn4ncnc4c23)CO1 | 3%
N#Cc1ccc(NC(=S)NC(=O)C2CCCCC2)cc1 | -3%
COc1ccc(C)cc1NC(=O)C(=O)NCC(c1cccnc1)N1CCc2ccccc21 (centres undefined) | 19%
C=CCOC(=O)C1=C(C)NC2(O)c3ccccc3C(=O)C12O (centres undefined) | ?
Cc1ccc(NC(=O)C2CCCN2S(=O)(=O)c2cccc3cccnc23)c(C)c1 (centres undefined) | 8%&6%
CCN1CCc2nc3sc(C(=O)N4CCc5ccccc5C4)c(N)c3cc2C1 | -14%
COc1ccc(OC)c(C(=O)Cn2nnc3ccccc3c2=O)c1 | -15%
Cc1ccc(N2CCN(C(=S)c3ccc(-c4ccccc4[N+](=O)[O-])o3)CC2)cc1 | ?
CCOC(=O)c1ccccc1NC(=O)c1cc2c(s1)-c1ccccc1SC2 | 4%
Cc1cc(NC(=O)c2cccnc2)ccc1Br | -15%
CC1(C)CC(=O)N(CC(=O)O)c2ccccc2S1 | 23%
Cc1cc2nc(N3CCN(C(=O)c4ccco4)CC3)sc2cc1C | 19%
COc1ccccc1C(=O)NNC(=O)C(=O)N1CCCCC1 | 0%
O=C(C1CCC(Cn2c(=O)c3sccc3n(Cc3cccc(F)c3)c2=O)CC1)N1CCCCC1 (centres undefined) | -8%
O=C(c1ccco1)N1CCN(c2nc(C(F)(F)F)nc3c2nnn3Cc2ccccc2)CC1 | -2%
COc1ccc(N2CCN(CC(=O)c3ccc(Cl)cc3)CC2)cc1 | 130%[activator]
Cn1c(NCc2ccccc2Cl)nc2ccccc21 | -28%
COc1ccc(C(=O)Nc2ccc(Cl)cn2)cc1S(=O)(=O)N1CCCC1 | 9%
CCC1(C)NC(=O)N(CC(=O)N2CCN(c3cccc(Cl)c3)CC2)C1=O (centres undefined) | ?
Cc1ccc(NC(=O)c2oc3ccc(Br)cc3c2C)cc1S(=O)(=O)N1CCOCC1 | -8%
CCOCCCN1C(=O)CN(C2CCCCCC2)C(=O)C1c1ccc(OC(C)C)c(OC)c1 (centres undefined) | 7%
CCC(c1nnnn1C1CCCC1)N1CCC(C(N)=O)CC1 (centres undefined) | -8%
COc1ccc(OC)c(S(=O)(=O)NC2CC(=O)N(c3cccc(F)c3)C2)c1 (centres undefined) | 24%
CCN(C(=O)COC(=O)CNC(=O)C12CC3CC(CC(C3)C1)C2)C1CCS(=O)(=O)C1 (centres undefined) | -27%
C=CCNCCCOc1ccc(Cl)cc1C(C)(C)C | -15%
Cc1c(NS(=O)(=O)c2cccc(C(=O)NCc3ccccc3Cl)c2)c(=O)n(-c2ccccc2)n1C | -11%
O=C(Nc1ncc([N+](=O)[O-])s1)c1ccccc1Br | -23%
NC(=O)c1ccccc1NC(=O)c1ccccc1F | -6%
COCCn1c(CCc2ccccc2)n[nH]c1=S | 1%
CN(C)C1C(=O)c2ccccc2C1=O | -6%
Cc1cccc2nc(CSc3nc4ccccc4o3)cn12 | 0%
CCOCCc1nnc(NC(=O)Cc2ccc(Br)cc2)s1 | -4%

Later entries.
SMILES | VDR inhibitor
O=c1c2sc3ccccc3c2n(Cc2cccc(Cl)c2)c(=O)n1Cc1ccco1 | -17%
O=C(O)c1c[nH]c(=O)c2ccccc12 | 14%
Cc1cccc(CSC2=CS(=O)(=O)c3ccccc3N2)c1 | -7%
O=C(CNC(=S)N(CCCN1CCOCC1)Cc1cccs1)NCc1ccc(Cl)cc1 | -9%
NC(=O)C1=C[C@@H](c2coc3ccccc3c2=O)C[C@@H](OCCCCO)O1 | 8%
CNc1ncc(-c2nnnn2-c2ccccc2)c(-c2ccccc2)n1 | 8%
COc1cc(C(=O)Nc2cccc(-n3cnnn3)c2)cc(Cl)c1OC | 14%
Cc1cccc2c1N(Cc1ccccc1OCCC(C)C)C(=O)C2=O | 22µM*
COc1cc(C(CCN2CCCCC2)c2c(OC)cc(OC)c3c(C)cc(=O)oc23)cc(OC)c1OC (centres undefined) | -3%
CC(C)Oc1ccc(C(=O)N2CCCc3ccccc32)cc1 | 3%
CN(CC(=O)Nc1cccc(F)c1)C(=O)c1cc([N+](=O)[O-])ccc1N1CCOCC1 | -13%
O=C(O)CCCC(=O)N(Cc1ccccc1)Cc1ccccc1 | -7%
C/C(=N\NC(=O)c1cccc(Br)c1)c1cccc(NC(=O)c2ccc(C)o2)c1 | 14%
CCN(Cc1nc(-c2cccc(C)c2)no1)C(=O)c1ccc2c(c1)OCO2 | -25%
Oc1ccc(Br)cc1CNc1ccccn1 | ?
CCOC(=O)N1CCc2c(sc3c2c(=O)n(Cc2ccccc2)c(=O)n3Cc2ccccc2Cl)C1 | -1%
O=c1[nH]c(=S)[nH]nc1Cc1ccccc1 | -22%
Cc1c(CCCC(=O)O)sc(N)c1C(=O)c1cccc(C(F)(F)F)c1 | 89µM*
CCCCn1cc(S(=O)(=O)c2ccccc2)c(=O)c2cc(F)c(N3CCN(CCC)CC3)cc21 | 12%
Clc1ccc(Nc2ncn[nH]2)cc1 | 9%
COc1ccc(NC(=O)N2CCCC(CNS(=O)(=O)c3cccs3)C2)c(C)c1 (centres undefined) | 0%
CC(=O)C1C(C)CC2C3CCC4CC(=O)CCC4(C)C3CCC21C (centres undefined) | -1%
CN(O)C(=S)c1ccccc1 | -16%
Cc1ccc(N=Cc2cc3c(cc2[N+](=O)[O-])OCO3)cc1[N+](=O)[O-] | ?
COc1ccccc1COn1c(=O)c(-c2ccco2)[n+]([O-])c2ccccc21 | -1%
COc1ccccc1NC(=O)CSc1nccc(-c2ccco2)n1 | -6%
CCOc1cccc(NCc2cc3c(C(C)(C)C)nn(-c4ccccc4)c3[nH]c2=O)c1 | 6%
COc1ccc(NC(=O)CC2C(=O)N(c3cccc(OC)c3)C(=O)N2CCC(C)C)cc1 (centres undefined) | -8%
Cc1cccc2nc3c(nc12)-c1ccccc1C3=O | -18%
COc1cc(NC(=O)CC(C)n2ccnc2)cc(OC)c1 (centres undefined) | -9%
O=C(c1ccccc1/S(=N/S(=O)(=O)c1ccccc1)N1CCOCC1)N1CCOCC1 (centres undefined) | 4%
Cc1cc(C(=O)Cn2nnc3ccccc3c2=O)c(C)n1-c1c(C)n(C)n(-c2ccccc2)c1=O | 0%
Cc1cc2oc3ccc(NCCC4CCCN4C)cc3c(=O)c2cc1C (centres undefined) | -6%
Cc1ccc(N=Cc2nc(-c3ccc(C)cc3)oc2O)cc1 | -2%
CC(C)(C)C1CCc2onc(C(=O)Nc3sc4c(c3C#N)CCCC4)c2C1 (centres undefined) | ?
CCc1c(C)c2cc(Cl)c(O)c(CN3CCCC3)c2oc1=O | 6%
CC(C)(C)OC(=O)NCCCCCNC(=O)c1nc[nH]c1C(=O)NCc1ccc(CNC(=O)OC(C)(C)C)cc1 | -20%
CCCC(=O)Nc1ccc(C(=O)N/N=C/c2cccnc2)cc1 | 10%
Cc1ccc(C)c(S(=O)(=O)N2CCCCC2CCNC(=O)C(=O)NCc2ccccc2)c1 (centres undefined) | ?
Cc1ccc(S(=O)(=O)N2CCC(=O)N(C(COCc3ccc(C(F)(F)F)cc3)Cc3ccccc3)CC2)cc1 (centres undefined) | -2%
COc1ccc(C(=O)C2CCN(C(=S)NCCc3ccccc3)CC2)cc1 | -1%
O=C(CN1C(=O)c2ccccc2S1(=O)=O)N1CCN(c2ccccc2)CC1 | 1%
CC(C)C(=O)N/N=C/c1ccc(OCc2ccccc2)cc1 | 1%
CCC(=O)N1CCc2cc(S(=O)(=O)NC(C(=O)Nc3cccc(C)n3)C(C)C)ccc21 (centres undefined) | -5%
CC(C)NC(=O)CSc1ccccc1C(=O)NNC(=O)Cn1ccc(C(F)(F)F)n1 | ?
CNC(=O)c1[nH]cnc1C(=O)N[C@@H](Cc1ccccc1)C(=O)OCc1ccccc1 | 2%
CC1(C)Cc2[nH]c(=O)c(C#N)cc2CS1 | 3%
COc1ccc(NC(=O)CSc2nnc(-c3ccccn3)n2N)c(OC)c1 | -12%
CCCc1cc(=O)oc2c3c(ccc12)OCN(Cc1ccc(OC)cc1)C3 | 17%
CCOC(=O)c1c(NC(=O)COC(=O)CNC(=O)c2ccco2)sc(C)c1C | ?

Next part:
SMILES | VDR inhibitor
Fc1ccc(CNCCC(Cc2ccccc2)c2ccco2)cc1 (centres undefined) | 13%
COc1ccccc1CCNS(=O)(=O)CCNC(=O)c1ccc2c(c1)OCO2 | 4%
CCOC(=O)C1=C(CC)Nc2ccccc2N/C1=N\S(=O)(=O)c1ccc(C(=O)OCC)cc1 | 5%
O=C1CN(C(=O)CSc2nc3ccccc3c(=O)n2Cc2ccc(F)cc2)c2ccccc2N1 | 1%
COCCCNC(=O)C1CCN(S(=O)(=O)N(CC(C)C)CC(C)C)CC1 | -3%
CC(=O)Nc1ccc(N2CC(C)(C)C2=O)cc1 | 10%
Nc1ccccc1C(=O)NCCCN1CCN(c2cccc(Cl)c2)CC1 | 10%
Cc1ccccc1-n1c(SCC(=O)N2CCC(C(=O)O)CC2)nnc1-c1ccncc1 | 12%
COc1ccc(NC(=O)Cn2c(=O)oc3cc(S(=O)(=O)NCc4ccccc4)ccc32)c(OC)c1 | 8%
NC1=NC(=O)/C(=C/c2cn(Cc3ccccc3)c3ccccc23)S1 | ?
CCCC(=O)Nc1ccc(OCC(O)CNC(C)C)c(C(C)=O)c1 (centres undefined) | 2%&0%
Cc1noc(C)c1C(=O)N1CCC(C(=O)c2ccc(F)cc2F)CC1 | 11%
CSc1nc(-c2ccc(C)cc2)[nH]c1S(=O)(=O)c1ccccc1 | -17%
Cc1ccc(S(=O)(=O)NCCOc2nc(N3CCOCC3)nc(N3CCOCC3)n2)cc1 | 4%
CCCCn1c(N)c(N(Cc2ccccc2OC)C(=O)CN2C(=O)NC(C)(c3ccccc3)C2=O)c(=O)[nH]c1=O (centres undefined) | -6%
COc1cccc(NC(=O)CCC2CCN(C(=O)c3c(C)noc3C)CC2)c1 | -2%
CCCC(C(=O)NC1CCCC1)N(Cc1ccc2c(c1)OCO2)C(=O)c1snc(C(N)=O)c1N (centres undefined) | 2%

Marked active in VDR inhibitor, among the entries above:
SMILES | VDR inhibitor
Cc1cccc2c1N(Cc1ccccc1OCCC(C)C)C(=O)C2=O | 22µM*
Cc1c(CCCC(=O)O)sc(N)c1C(=O)c1cccc(C(F)(F)F)c1 | 89µM*
